# Assay outcomes from PubChem.
# Giardia kill: Giardia lamblia killing | Giardia lamblia trophozoite viability | 340,000 compounds, 0.15% hits | activity change, % at 7.66 µM, hits read low | AID 540267; in the data active means activity change below about -80%; inconclusive means between about -30% and that limit;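 further: parasites exposed to compound for two days anaerobically before the ATP read; on the % scale 0 is the no-effect control and ±100 the full control effect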
#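 Luminescence from cellular ATP indicates surviving trophozoites (100 cells/well) following 48 hrs anaerobic compound treatment at 37 deg C; signal develops 15-30 min at room temperature.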
# GALK inh: blocks human galactokinase activity; P51570; Purified GALK, Kinase-Glo residual ATP luminescence; Potency, µM (top dose mostly 57.5 µM), without a hit: at the top dose activity change, negative = inhibition, most hits filed as inhibitors; 270,000 compounds, 0.007% hits; AID 1868; further: potency means the concentration at half of the fitted maximal effect; on the % scale 0 is the no-effect control and ±100 the full control effect
# Target sequence (P51570 whole entry, looked up): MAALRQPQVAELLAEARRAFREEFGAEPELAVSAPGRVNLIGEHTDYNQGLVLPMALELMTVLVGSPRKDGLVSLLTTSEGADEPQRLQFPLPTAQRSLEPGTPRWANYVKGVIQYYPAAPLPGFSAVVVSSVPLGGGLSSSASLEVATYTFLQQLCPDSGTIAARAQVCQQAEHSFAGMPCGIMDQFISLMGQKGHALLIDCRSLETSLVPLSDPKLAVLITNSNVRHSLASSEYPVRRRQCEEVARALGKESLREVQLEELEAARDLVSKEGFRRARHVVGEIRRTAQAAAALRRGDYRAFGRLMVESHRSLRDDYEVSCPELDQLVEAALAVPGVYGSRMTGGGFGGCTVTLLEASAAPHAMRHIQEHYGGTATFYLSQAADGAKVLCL
#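 GALK at 5 nM final was combined with compound, 35 uM ATP and 100 uM galactose in HEPES pH8.0 with MgCl2 and DTT. The reaction ran one hour at room temperature before luminescent ATP detection.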
# TSHR antag: human thyrotropin receptor antagonism; TSHR-expressing cells, TSH-stimulated cAMP HTRF, 2 h; stronger effect = lower value; AID 504810; P16473; 330,000 compounds, 0.2% hits; activity change, negative = inhibition, % at 11.5 µM;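 active means activity change below a set negative limit, meaning inhibition stronger than a set level, cut at about -70% in these data; inconclusive means activity change between two set negative limits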; further: on the % scale 0 is the no-effect control and ±100 the full control effect
#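 TSHR-expressing cells were treated with compounds, then stimulated with TSH at EC80 (4nM final) for 2 hours at 37 deg C. Cellular cAMP was measured by HTRF competition between lysate cAMP and cAMP-d2 for a cryptate-labelled anti-cAMP antibody.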
# TCR activator: activates T cell receptor signaling | primary human leukocytes, anti-CD3, IL-2 HTRF, 48 h | Potency, µM (doses to about 9.22 µM), without a hit: top-dose activation of IL-2 secretion, actives largely listed as activators | 330,000 tested, under 10 active; further: % of control where 0% means no effect
#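 HTRF read-out of IL-2 secretion: europium cryptate donor excited at 320nm, d2 acceptor emission at 665nm. Cells were primary human leukocytes incubated 48 hr with compounds and a-CD3 beads, supplying TCR signal only.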
# Coupling enz: counter-screen for Giardia aldolase inhibitors: coupling enzyme system. coupling enzyme system counterscreen, AmpLite Red fluorescence. activity change, negative = inhibition, % at 58.2 µM, hits read low. 290,000 compounds, 0.67% hits. AID 2472; in the data active means activity change below about -30%; further: on the % scale 0 is the no-effect control and ±100 the full control effect
#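 Compounds tested against the coupling enzymes alone at 57.5 uM final; readout was AmpLite Red fluorescence (525/598 nm) after 20 min at RT.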
# Tb PFK inh: T. brucei PFK enzyme inhibition. Potency, µM (top dose mostly 57.5 µM), for the others: at the highest dose activity, negative = inhibition, usual class: inhibitors. T. brucei PFK, ADP-Glo luminescence. 330,000 compounds, 0.17% hits;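 further: potency means the concentration at half of the fitted maximal effect; 0% = uninhibited 1x PFK enzyme wells and -100% = no-enzyme wells; nearly all actives have a fitted effect of over 60% in size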
# Target sequence (O15648 whole entry, looked up): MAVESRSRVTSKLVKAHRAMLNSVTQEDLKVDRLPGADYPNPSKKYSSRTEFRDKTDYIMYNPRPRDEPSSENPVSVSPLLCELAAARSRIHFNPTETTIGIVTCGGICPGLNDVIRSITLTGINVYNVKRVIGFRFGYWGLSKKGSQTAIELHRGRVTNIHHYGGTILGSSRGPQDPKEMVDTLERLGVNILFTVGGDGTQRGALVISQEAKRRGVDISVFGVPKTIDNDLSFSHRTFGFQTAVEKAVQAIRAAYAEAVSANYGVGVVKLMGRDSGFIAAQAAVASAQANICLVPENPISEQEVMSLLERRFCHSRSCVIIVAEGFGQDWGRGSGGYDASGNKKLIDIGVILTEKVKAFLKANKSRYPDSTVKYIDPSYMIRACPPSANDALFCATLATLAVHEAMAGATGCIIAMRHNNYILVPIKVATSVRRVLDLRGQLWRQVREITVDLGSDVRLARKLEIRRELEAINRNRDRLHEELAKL
#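 Activity is normalized to no-enzyme wells (full inhibition) and 1.25 nM enzyme wells (no inhibition). Reaction: 0.5 mM F6P, 0.1 mM ATP, 45 min RT, ADP-Glo luminescence; concentration-response curves fitted and classed by quality.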
# AT treatment: potential ataxia-telangiectasia treatments restoring KAP-1 phosphorylation; Potency, µM (series often up to 57.5 µM), for inactives: at the top dose activation, most hits filed as activators; […] A-T fibroblasts, KAP-1 phosphorylation AlphaLISA; neocarzinostatin DNA damage 30 min before lysis; AID 485349; 320,000 compounds, 0.19% hits; further: potency means the concentration at half of the fitted maximal effect; % of control where 0% means no effect; nearly all actives have a fitted effect of over 45% in size
#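 hTERT-immortalized A-T patient fibroblasts ([…]), 500 cells/well in OPTI-MEM, 1% FBS, got compounds for 60 min, then NCS for 30 min at 37C. Lysates were then assayed for phospho-KAP-1 by AlphaLISA (anti-pKAP1 donor, anti-KAP1 acceptor beads), 6 hr at 25C.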
# BCR signal inh: chronic active BCR signaling inhibition. 340,000 compounds, 0.05% hits. Potency, µM (doses to about 46.1 µM), without a hit: at the top dose ratio change, negative = lower green/red ratio, most hits filed as inhibitors. ABC-DLBCL IkBa-CBG/CBR reporter, luminescence ratio, 4 h; active means well fitted inhibition curve with a large enough effect in the signal ratio, with a control signal flat, not every such curve was filed as active; inconclusive means small, poorly fitted or top-dose-only effect, or effect the other way, or a change in a side signal; the % refers to the signal ratio;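 further: potency means the concentration at half of the fitted maximal effect; plate controls were basal doxycycline-induced cells for no effect and cells given 10 µM MG132 for full effect; MG132 reads +100%, hits lower the ratio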
#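 Cell line TMD8 (human ABC DLBCL), stably expressing tet-inducible CBG68-IkBa fusion and CBR; IMDM/0.5% FBS; cpd up to 46 uM; dox induction, 4 h, 37C/5% CO2; dual luminescence; green/red ratio; MG132 control.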
# CXXC DNA block: blocks binding of human MLL CXXC domain to DNA | Q03164 | MLL-CXXC / FITC-HOXA9 DNA fluorescence polarization | Potency, µM (titrated, usually from 115 µM), inactives show top-dose activity change, negative = inhibition, actives largely listed as inhibitors | 290,000 compounds, 0.037% hits; active means well fitted inhibition curve with a large enough effect in the polarisation, with a control signal flat, not every such curve was filed as active; inconclusive means small, poorly fitted or top-dose-only effect, or effect the other way, or a change in a side signal; inactive means no such curve, though single readings can be large or run the other way; the % refers to the polarisation; further: potency means the concentration at half of the fitted maximal effect
#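 Steps: dispense CXXC domain solution (7 uM) → pin compounds or unlabeled HOX-A9 DNA control → 5 min ambient → add FLSN-HOX-A9 solution (50 nM) → spin → 30 min ambient → fluorescence polarization. Tris pH 7.5/NaCl/DTT/BSA buffer.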
# The depositor's hits bear a star; ? = inconclusive; . = not tested or not shown; & = joins results of further samples; [ ] = another dose, or the depositor's remark. Unless noted, the call rests on the fitted dose curve; in most records, active means well fitted curve in the direction sought with a large enough effect; inconclusive means small, poorly fitted or top-dose-only effect, or another doubt; inactive means no such curve, though single readings can be large; an effect the other way counts as inactive or inconclusive. The list is partial; rates above refer to the full screens.
cpd	compound	Giardia kill	GALK inh	TSHR antag	TCR activator	Coupling enz	Tb PFK inh	AT treatment	BCR signal inh	CXXC DNA block
1	COc1ccc(CN(Cc2cccn2C)S(=O)(=O)c2ccccc2)cc1	3	.	-5	-2%	0	1%	2%	-2%	-11%
2	CC1(C)SC2[C@H](NC(=O)C(NC(=O)N3CCNC3=O)c3ccccc3)C(=O)N2C1C(=O)O (stereo not given in full)	.	.	9	.	1	-6%	15%	5%	2%
3	Cc1ccc([N+](=O)[O-])cc1NC1CC(O)C(CO)O1 (stereo not given)	-24	0%	19	-1%[46.1 µM]	3	-16%	-3%	-18%	2%
4	CCC(C)n1c(C)nc2c(c1=O)c1nc3ccccc3nc1n2CCC1=CCCCC1 (stereo not given)	-9	-1%	-24	-1%	.	1%	-1%	-1%	5%
5	O=S(=O)(NC1CCCCC1NCc1ccco1)c1ccc(Cl)cc1 (stereo not given)	-3	-1%	6	-2%	-1	12%	0%	-3%	-7%
6	CC(=O)OCP(C)(=O)COC(C)=O	3	-5%	6	3%	2	-5%	0%	-5%	-3%
7	CC(=O)NS(=O)(=O)c1ccc(NC(=O)/C=C/c2ccco2)cc1	6	3%	-1	-4%	9	6%	3%	-2%	7%
8	OC[C@@H](O)[C@@H](O[C@H]1O[C@H](CO)[C@@H](O)[C@H](O)[C@H]1O)[C@H](O)[C@@H](O)CO	5	-1%	12	9%	5	-2%	.	8%	2%
9	O=S(=O)(c1cccc2nsnc12)N1CCN(c2ncccn2)CC1	17	0%	2	-5%	-1	-1%	9%	-3%	6%
10	CC1(C)S[C@@H]2[C@H](NC(=O)C3(N)CCCCC3)C(=O)N2[C@H]1C(=O)O	.	.	.	.	0	.	.	.	0%
11	Nc1nc2ncc(CNc3ccc(C(=O)NC(CCC(=O)O)C(=O)O)cc3)nc2c(=O)[nH]1 (stereo not given)	.	.	.	.	1&4&1	.	.	.	-16%
12	NC1CONC1=O (stereo not given)	.	.	-12	.	6	.	.	.	-14%
13	CNCC(O)c1ccc(O)c(O)c1 (stereo not given)	2	.	-18	1%	-25	-10%	-18%	3%	4%
14	C#C[C@@]1(O)CC[C@@H]2[C@@H]3CCC4=C(CCC(=O)C4)[C@H]3CC[C@]21C	.	.	.	.	0	.	.	.	7%[51.4 µM]
15	CCCC1=C(C(=O)OCC)C(c2ccc(OC)c(CSc3ccccn3)c2)C(C#N)=C(N)O1 (stereo not given)	-5	1%	13	-7%[46.1 µM]	-2	-5%	4%	7%	5%
16	Cc1c(-c2ccc(F)cc2)nc(N)c(C#N)c1-c1cccnc1	-6	-1%	14	1%	1	0%	41%	14%	1%
17	Cc1ccc(C)c(NC(=O)CN(C)C(=O)C2COc3ccccc3O2)c1 (stereo not given)	11	.	0	4%	.	22%	4%	1%	.
18	O=C(NN=C1CCCCCCCCCCC1)c1cccc(S(=O)(=O)N2CCOCC2)c1	4	0%	4	0%[46.1 µM]	3	-1%	4%	1%	4%
19	Cc1cc(C)nc(/N=C(\N)Nc2ccc(F)c([N+](=O)[O-])c2)n1	-8	0%	13	-3%	0	2%	-5%	9%	-4%
20	Cc1sc2ncnc(N3CCN(c4ncccn4)CC3)c2c1C	-12	-2%	-24	3%	-5	-3%	5%	5%	0%
21	COc1ccc2cc([C@H](C)C(=O)O)ccc2c1	-25	6%	-8&-17	-3%	-1&1&4&-1	-1%	-4%	?	2%
22	CCOCCCn1c(=N)c(C(=O)NCc2ccc3c(c2)OCO3)cc2c(=O)n3cccc(C)c3nc21	16	0%	5	7%	.	1%	1%	0%	?
23	CCN(C(=O)COc1cc(=O)n(CC)c2ccccc12)c1cc(Cl)ccc1OC	-17	0%	-10	6%	8	-1%	11%	-13%	22%
24	COc1cc2cc(-c3ccc(O)cc3O)nc(C)c2cc1OC	-30	-3%	-13	6%	-2	-1%	-17%	?	?
25	NC(=O)C1CCN(C(=O)c2ccccc2SCC(=O)NCC2CCCCC2)CC1	-13	-3%	11	5%	.	-1%	5%	-1%	4%
26	OCc1cnc(SCc2ccccc2)n1Cc1ccccc1	11	1%	7	7%	0	17%	-1%	3%	-1%
27	COc1ccc(CCN2CCC(Nc3nc4ccccc4n3Cc3ccc(F)cc3)CC2)cc1	-25	-1%	-28	8%	-1&3&2&0	-6%	-1%	?	-2%
28	CN(C)CCC=C1c2ccccc2C=Cc2ccccc21	24	.	-14&-7	-2%	2&1	-5%	3%	?	28%&4%
29	Cc1onc(-c2ccccc2Cl)c1C(=O)NNC(=O)C1CCN(Cc2ccccc2)CC1	-21	7%	15	4%	2	-3%	0%	-4%	.
30	Cc1ccc(SCc2nc(-c3cccnc3)no2)cc1	-11	1%	-32	0%	-5	-8%	-3%	2%	-5%

# Two compounds drawn at random from the list so far:
cpd	compound	Giardia kill	GALK inh	TSHR antag	TCR activator	Coupling enz	Tb PFK inh	AT treatment	BCR signal inh	CXXC DNA block
6	CC(=O)OCP(C)(=O)COC(C)=O	3	-5%	6	3%	2	-5%	0%	-5%	-3%
11	Nc1nc2ncc(CNc3ccc(C(=O)NC(CCC(=O)O)C(=O)O)cc3)nc2c(=O)[nH]1 (stereo not given)	.	.	.	.	1&4&1	.	.	.	-16%

# Additional compounds:
cpd	compound	Giardia kill	GALK inh	TSHR antag	TCR activator	Coupling enz	Tb PFK inh	AT treatment	BCR signal inh	CXXC DNA block
31	CNC(CC(C)C)C(=O)NC1C(=O)NC(CC(N)=O)C(=O)NC2C(=O)NC3C(=O)NC(C(=O)NC(C(=O)O)c4cc(O)cc(O)c4-c4cc3ccc4O)C(O)c3ccc(c(Cl)c3)Oc3cc2cc(c3OC2OC(CO)C(O)C(O)C2OC2C[C@](C)(N)C(O)C(C)O2)Oc2ccc(cc2Cl)C1O (stereo not given in full)	18	.	9	-1%	.	-3%	-8%	-15%	.
32	Nc1nc2ncc(CNc3ccc(C(=O)N[C@@H](CCC(=O)O)C(=O)O)cc3)nc2c(=O)[nH]1	15	.	4	-2%	-2&9&3	14%	-6%	-14%	-7%
33	CN1[C@@H]2CC[C@H]1CC(OC(c1ccccc1)c1ccccc1)C2 (stereo not given in full)	.	.	.	.	3	.	.	.	?
34	COc1ccc(Cl)cc1C(=O)NCCc1ccc(S(=O)(=O)NC(=O)NC2CCCCC2)cc1	1	4%	-15&-6	-4%	22&14&14&10&9	-4%	-9%	5%	1%&-1%
35	CC1(C)S[C@@H]2[C@H](NC(=O)[C@@H](NC(=O)N3CCNC3=O)c3ccccc3)C(=O)N2[C@H]1C(=O)O	.	.	.	.	3	.	.	.	-5%[51.4 µM]
36	O=C(N/N=C/c1ccc(O)c2ncccc12)c1cccc(Br)c1	3	-3%	-10	3%	-4	6%	-2%	-16%	?
37	Cc1cc(-c2ccc(C)c(S(=O)(=O)NCCCN3CCCCCC3)c2)on1	3	-4%	-15	-5%	.	0%	7%	-1%	-2%
38	O=C1CC[C@@H](C(=O)O)N1	-3	.	-6	5%	.	5%	-5%	0%	8%
39	Nc1ncn(C2O[C@H](CO)[C@@H](O)[C@H]2O)c(=O)n1 (stereo not given in full)	.	.	10	.	.	0%	24%	?	.
40	CN(C)CCCN1c2ccccc2CCc2ccc(Cl)cc21	25	1%	-11&-6	6%	-6&2&2&1	4%	1%	?	10%&15%
41	CN1CCN2c3ncccc3Cc3ccccc3C2C1 (stereo not given)	13	.	.	-5%	0	.	.	.	-5%
42	CSc1ccc(C(=O)c2[nH]c(=O)[nH]c2C)cc1	-15	.	10&-2	-1%	.	1%	?	4%	-3%
43	CCN(c1ccc(NC(=O)COC(=O)c2ccc(S(=O)(=O)N3CCCC3)cc2)cc1)C(C)C	-4	-2%	13	1%	-1	-4%	-4%	9%	24%
44	CC(C)[C@@H]1COC(c2cccc(C3=N[C@H](C(C)C)CO3)c2)=N1	-3	.	12	-5%	1	1%	4%	?	0%
45	NS(=O)(=O)c1cc2c(cc1Cl)NC=NS2(=O)=O	10	.	13&-2	-3%	0&4&6	0%	-4%	1%	4%&3%
46	COc1ccc(OC)c([C@H](O)CNC(=O)CN)c1	.	.	.	.	5	.	.	.	-8%[51.4 µM]
47	CCC(NC(=O)C1C2C=CC(C2)C1C(=O)O)c1ccc(C)cc1 (stereo not given)	1	0%	15	.	-2	-4%	-5%	-3%	1%
48	Clc1ccc(C(Cn2ccnc2)OCc2c(Cl)cccc2Cl)c(Cl)c1 (stereo not given)	?	.	-11	-4%	.	0%	2%	?	.
49	COc1ccc(CNc2ncnc3cc(Cl)ccc23)cc1	12	1%	-19	8%	1	0%	0%	?	3%
50	CCOc1ccc(/C=N/NC(=O)Cc2cccs2)cc1	16	-6%	-10	6%	-1	1%	-1%	-12%	-1%
51	O=Cc1cccn1Cc1ccccc1[N+](=O)[O-]	-7	2%	0	0%[46.1 µM]	0	0%	-1%	0%	13%
52	CC1(C)CC2CC(C)(CN2C(=O)c2ccc([N+](=O)[O-])cc2[N+](=O)[O-])C1 (stereo not given)	11	-1%	6	1%	-4	0%	0%	-1%	5%

# As entered above:
# For AT treatment, `CN(C)CCCN1c2ccccc2CCc2ccc(Cl)cc21` reads 1%
# For Coupling enz, `CN1[C@@H]2CC[C@H]1CC(OC(c1ccccc1)c1ccccc1)C2` (stereo not given in full) reads 3
